HPGD inh: inhibitors of human 15-hydroxyprostaglandin dehydrogenase (HPGD); purified HPGD, NADH fluorescence kinetic, PGE2 substrate; Potency, µM, for the others: at the highest dose activity change, negative = inhibition, most hits filed as inhibitors; P15428; 4.3% of 150,000 active; AID 894; active = well fitted inhibition curve with a large enough effect (not every such curve was filed as active); inconclusive = small, poorly fitted or top-dose-only effect, or another doubt; inactive = no such curve, though single readings can be large or run the other way;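 note: top concentration of the series not given in the record; plate controls included wells without enzyme; inactives centre near -10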
Target sequence (P15428 whole entry, looked up): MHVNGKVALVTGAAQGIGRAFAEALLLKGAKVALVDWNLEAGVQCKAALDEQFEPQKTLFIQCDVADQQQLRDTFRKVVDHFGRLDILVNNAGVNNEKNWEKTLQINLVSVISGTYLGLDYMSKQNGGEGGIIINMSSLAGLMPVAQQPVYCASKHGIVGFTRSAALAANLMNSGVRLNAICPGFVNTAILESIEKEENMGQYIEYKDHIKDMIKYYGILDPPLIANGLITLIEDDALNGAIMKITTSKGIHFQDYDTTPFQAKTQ
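20 nM HPGD preincubated 15 min at room temperature with compound in 50 mM Tris-HCl pH 8, 0.01% Tween 20. Started with 1 mM NAD+ and 30 uM prostaglandin E2; NADH fluorescence (360/450 nm) read 5 times over 30-s intervals, last minus first.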
Numbers without * were called inactive; ? = inconclusive. % is set by controls: 0 for no effect and ±100 for the full control effect; potency is the fitted concentration of half-maximal effect. These rows are one share of the data (hit frequency here may not be typical).

SMILES	HPGD inh
COc1ccc(C(=O)/C=C/c2ccc(C)cc2)c(OC(=O)c2ccc([N+](=O)[O-])cc2)c1	-22%
O=C(O)CCc1nn2c3ccccc3n(CCN3CCCCC3)c2nc1=O	?
CCc1ccc(NS(=O)(=O)c2ccc3[nH]cc(C(=O)N4CCCCC4)c(=O)c3c2)cc1	?
COc1ccc(C/C(N)=N/O)cc1	-2%
Cc1cc(F)ccc1S(=O)(=O)Nc1ccccc1C(=O)Nc1ncn[nH]1	?
OCCNc1nc(-c2cccnc2)nc2ccccc12	?
Cc1ccccc1CN1C2=NCCN2c2ccccc21	-4%
CC1=NN2C(=N)/C(=C\c3ccc(SCc4ccccc4)o3)C(=O)N=C2S1	-22%
COc1ccc(C(=O)Nc2ccc(S(=O)(=O)N3CCCC3)cc2)c(OC)c1	-12%
O=C1CC(N2CCC(O)(c3ccc(Cl)cc3)CC2)C(=O)N1 (configuration not stated)	-15%
OC[C@H]1O[C@@H](n2cnc3c(NC4CCCC4)ncnc32)[C@H](O)[C@H]1O	-5%
COc1ccc(OC)c(-c2cc(C3CCN(c4cc(Cl)nc(N)n4)CC3)[nH]n2)c1	-5%
CCc1nnc(NC(=O)C2CC(=O)N(Cc3ccco3)C2)s1 (configuration not stated)	-3%
O=C(CSc1nnc(-c2ccccc2F)n1CCc1ccccc1)Nc1ccc2[nH]c(=O)[nH]c2c1	-3%
CCSc1nc2ccccc2n1CCOc1ccccc1	-3%
Cc1ccoc1C(=O)NCCCNC(=O)c1occc1C	-13%
O=C(CCCSc1nc2sc3c(c2c(=O)[nH]1)CCC3)NCCCO	?
CCOc1ccccc1C1C2C(=O)N(c3ccccc3)C(=O)C2ON1c1ccccc1 (configuration not stated)	-18%
c1ccc(Cc2nnc3sc(-c4cccs4)nn23)cc1	8.9µM*
CCOC(=O)c1cn(CC(=O)Nc2cccc(Cl)c2C)nn1	-1%
CCCCNCc1cc(Br)c(OCC(=O)N2CCOCC2)c(OC)c1	1%
Cc1ccc2nc(Nc3nc(CSc4nc5ccccc5s4)cc(=O)[nH]3)nc(C)c2c1	-14%
Fc1ccc(/C=C2\CCCC3=C2NC(=S)NC3c2ccc(F)cc2)cc1 (configuration not stated)	25µM*
N=c1n(CCO)c2ccccc2n1Cc1ccc(Cl)cc1	-6%
CC(=O)c1ccc(NC(=O)C(C)OC(=O)c2ccc(NS(=O)(=O)c3ccc(F)c(F)c3)cc2)cc1 (configuration not stated)	-11%
CC12CCC(C(=O)Nc3cc(Cl)ccc3Cl)(C/C1=N\O)C2(C)C (configuration not stated)	-13%
Cc1csc(NC(=O)C2CCCC2)n1	-15%
CCCCCCCC(=O)N/N=C/c1ccc([N+](=O)[O-])o1	-15%
CC(=O)c1ccc(OCC(O)CN2CC(C)OC(C)C2)cc1 (configuration not stated)	-5%
O=C(O)/C=C\C(=O)Nc1ccccc1C(=O)NCc1ccccc1	-4%
Cc1ccc(S(=O)(=O)NCC(=O)OC(C(=O)c2ccccc2)c2ccccc2)cc1 (configuration not stated)	-13%
CC(=O)NCCC(=O)Nc1nc(C)c(Cc2ccc3c(c2)OCO3)s1	-6%
Cc1cc(Oc2nc3c(C)cccn3c(=O)c2/C=C(\C#N)S(=O)(=O)c2ccccc2)ccc1Cl	-18%
N=c1sccn1CC(=O)Nc1ccc(Cl)c(S(=O)(=O)N2CCOCC2)c1	-3%
COC(=O)/C(=C1\Oc2ccc(C(C)(C)C)cc2S1)C(F)(F)F	-12%
COc1cccc(NC(=O)CSc2nc3ccccc3c3nc4ccccc4n23)c1	-25%
COc1ccc(OCC(O)CNc2ccc(Br)cc2)cc1 (configuration not stated)	?
COc1cccc(NS(=O)(=O)c2ccc3[nH]cc(C(=O)NCCCOC(C)C)c(=O)c3c2)c1	?
COc1ccc(COC(=O)c2ccc(N3CCCC3=O)cc2)cc1F	14µM*
COc1ccc(CCNC(=O)Cc2ccc3c(c2)OCO3)cc1OC	-6%
COC(=O)c1sc(N)c(C(=O)OC)c1CSc1nc2sc3c(c2c(=O)n1C)CCC3	-18%
CC(C)n1c(SCc2ccccc2F)nc2c1c(=O)n(C)c(=O)n2C	-8%
O=C(N1CCN(c2ccccc2)CC1)C(F)(F)C(F)F	-18%
Cc1cc(C)cc(N2C(=O)c3nccnc3C2=O)c1	-7%
C#CCN1C(=O)C(O)(CC(=O)c2ccc3c(c2)OCCO3)c2ccccc21 (configuration not stated)	-23%
O=C1N=C2SCCN2/C1=C\c1ccc(Cl)cc1	-18%
CCOc1ccc(-n2c(=S)sc3c(=O)[nH]c(SCC(=O)NC(C)CC)nc32)cc1 (configuration not stated)	-14%
Cc1nn(Cc2ccccc2)c(Cl)c1C(=O)NCc1ccc(C)n1C	-10%
NNC(=O)c1nn(-c2ccc(Cl)cc2)ccc1=O	-9%
COc1ccc(OC)c2[nH]c(=O)c(CCNC(=O)c3ccc(Br)o3)cc12	-9%
CCc1ccc(-c2nn[nH]n2)cc1	-7%
CCOC(=O)CNC(=O)CSc1nc2cccnc2n1C	-2%
CSCCC(NS(=O)(=O)c1ccc(Cl)cc1)C(=O)OCC(=O)NC12CC3CC(CC(C3)C1)C2 (configuration not stated)	-3%
O=C(CNc1ccc2ccccc2c1)N/N=C/C=C/c1cccc([N+](=O)[O-])c1	-23%
COc1ccc(CCN(C(=O)c2ccc(F)cc2)C2=CC3CCC(C2)N3C)cc1OC (configuration not stated)	2%
c1ccc(-c2nnc(-c3ccco3)n2-c2ccccc2)cc1	-18%
O=C(CNC(=O)c1ccc(Cl)cc1)NCCCn1ccnc1	-12%
CCCC(O)(CCC)C(=O)NN(C(=O)CCl)c1ccccc1	-10%
COC(=O)c1[nH]c2ccc(C)cc2c1NC(=O)Oc1ccccc1	-22%
Cc1nc(C(=O)Nc2ccc(Cl)cc2)nn1-c1ccc([N+](=O)[O-])cc1	-2%

Of the compounds above, three have bromine:
SMILES	HPGD inh
CCCCNCc1cc(Br)c(OCC(=O)N2CCOCC2)c(OC)c1	1%
COc1ccc(OCC(O)CNc2ccc(Br)cc2)cc1 (configuration not stated)	?
COc1ccc(OC)c2[nH]c(=O)c(CCNC(=O)c3ccc(Br)o3)cc12	-9%

Additional structures.
SMILES	HPGD inh
Cn1c(NC(=O)C2CCCO2)cc(=O)n(C)c1=O (configuration not stated)	-2%
Cc1noc(C)c1C(=O)N1CCC2(CC1)CCN(c1ccncc1)CC2	?
O=C(c1ccc(F)cc1)c1c[nH]c(C(=O)NCCCN2CCOCC2)c1	-4%
CS(=O)(=O)c1nncn1-c1ccccc1	3%
N#C/C(=C/Nc1ccccc1)c1ccsc1	-29%
CC1(C)CC(CCN(Cc2ccccc2)C(=O)c2ccco2)(c2ccccc2)CCO1 (configuration not stated)	-12%
O=C(CSc1nnc(CNC(=O)c2ccccc2F)o1)c1ccc(Cl)cc1	-13%
CC(C)(C)NC(=O)NC(=O)CSc1nnc(COc2ccccc2Cl)o1	-18%
Cc1nnc(Nc2ccc3c(c2)ncn3C)c2ccccc12	-1%
CC(C)(C)NC(=O)C(c1ccccc1)N(C(=O)C1CSC(=O)C1)c1ccccc1 (configuration not stated)	0%
O=C(O)C(=O)/C(=C\c1cccc2ccccc12)c1ccc2ccccc2n1	?
Cc1cc(SCC(=O)OCC(=O)NC(C)c2ccccc2)c(C)cc1Br (configuration not stated)	-6%
O=C(NCCN1CCOCC1)c1ccc2c(c1)ncn2C1CCCC1	-2%
COc1ccc(-c2nnc(SCC(=O)NC(=O)NCc3ccccc3)o2)cc1	-1%
CSc1ccc(OC2CCCCC2NS(=O)(=O)c2ccc(Cl)cc2)cc1 (configuration not stated)	-13%
Cc1ccc(C(=O)N2CCOCC2)cc1Cl	?
Cc1ccc(/C=N/NC(=O)c2csc3c2CCCC3)cc1	-17%
CCCCn1c(N)c(C(=S)NC(=O)CC(C)C)c(=O)n(C)c1=O	-8%
Cc1cn(C2OC(COC(=O)c3ccccc3)C(OC(=O)c3ccccc3)C2OC(=O)c2ccccc2)c(=O)[nH]c1=O (configuration not stated)	-12%
O=C1Nc2ccccc2N(O)N1c1ccc(S(=O)(=O)N2CCCCCC2)cc1	0%
O=C(CCNS(=O)(=O)c1ccc(Br)s1)Nc1ccc(Cl)cc1	-14%
CS(=O)(=O)N1N=C(c2ccccc2)CC1c1ccc2c(c1)OCO2 (configuration not stated)	-8%
COC(=O)C(NC(=O)CCc1c(C)nc2ncnn2c1C)C(C)C (configuration not stated)	-10%
O=C(Nc1nc2ccc(S(=O)(=O)N3CCCC3)cc2s1)C1CCCCC1	20µM*
CC(=O)N1CCC[C@@]2(CCN(Cc3cc(C(F)(F)F)cc(C(F)(F)F)c3)C2)C1	-4%
O=C(Nc1cccc(Cl)c1)c1ccc(F)c(S(=O)(=O)NCc2ccc3c(c2)OCO3)c1	-6%
CCc1nc2cc(C)nn2c2nc3ccccc3n12	-3%
Cc1onc(-c2c(F)cccc2Cl)c1C(=O)Nc1nnc(-c2ccccc2)s1	-16%
Cc1ccc(NC(=O)C2C3CCCC2C3c2ccccc2)cc1 (configuration not stated)	-5%
COC(=O)CCCCC1SCC2NC(=O)NC21O (configuration not stated)	1%
CC(C)Nc1nc(Oc2ccc(Cl)cc2Cl)cc(C(F)(F)F)n1	?
CCOc1ccccc1N(CC(=O)NC1CCCCC1)C(=O)CNC(=O)c1ccco1	-9%
COc1ccc(NCc2nnc(SCc3ccccc3)n2-c2ccc(OC)cc2)cc1	-2%
COC(=O)c1cc2sc(Cl)cc2n1CC(=O)NCC1CCCO1 (configuration not stated)	-11%
COc1cc(NC(=S)N2CCC(C(O)(c3ccccc3)c3ccccc3)CC2)cc(OC)c1	-18%
O=C(COC(=O)/C=C/c1cccc(F)c1)Nc1ccccc1-c1ccccc1	-25%

Entries from the list above containing a thiophene ring, fused or not, in the order listed:
SMILES	HPGD inh
O=C(CCCSc1nc2sc3c(c2c(=O)[nH]1)CCC3)NCCCO	?
c1ccc(Cc2nnc3sc(-c4cccs4)nn23)cc1	8.9µM*
COC(=O)c1sc(N)c(C(=O)OC)c1CSc1nc2sc3c(c2c(=O)n1C)CCC3	-18%
N#C/C(=C/Nc1ccccc1)c1ccsc1	-29%
Cc1ccc(/C=N/NC(=O)c2csc3c2CCCC3)cc1	-17%
O=C(CCNS(=O)(=O)c1ccc(Br)s1)Nc1ccc(Cl)cc1	-14%
COC(=O)c1cc2sc(Cl)cc2n1CC(=O)NCC1CCCO1 (configuration not stated)	-11%

Other structures follow.
SMILES	HPGD inh
Cc1ccc(C(NC(=O)NCCCN2CCOCC2)=C(Cl)Cl)cc1F	-14%
C=CCSc1nnc(NC(=O)c2nc(SCC)ncc2Cl)s1	-5%
Nc1nc(SCC(=O)NC2CCCCCC2)[nH]c(=O)c1-c1ccccc1	-12%
CCOC(=O)c1c(CN2CCCCC2)n(C)c2cc(Br)c(OC)cc12	-3%
CC(NS(=O)(=O)c1ccc(CCC(=O)NCC2CCCO2)cc1)c1ccccc1 (configuration not stated)	-9%
NC(=O)C(c1ccc(Cl)cc1)c1ncc(C(F)(F)F)cc1Cl (configuration not stated)	-7%
COc1ccc(NC(=O)C2CCN(c3nc(C)cc(C)n3)CC2)cc1	?
CCCCNC(=S)Nc1cc([N+](=O)[O-])ccc1C	14µM*
O=[N+]([O-])c1cc(C(F)(F)F)ccc1N/N=C/c1cc2ccccc2nc1Cl	-5%
CCN(CC)C(=O)CN(c1cccc(OC)c1)S(=O)(=O)c1ccc(C)cc1	-1%
CCCCCC(=O)c1c(C)[nH]c(C(=O)OCC)c1C	-29%
CN1CCN(C(CNS(=O)(=O)c2ccc(Cl)cc2)c2cccnc2)CC1 (configuration not stated)	-8%

In the list so far, three contain a COOH group.
SMILES	HPGD inh
O=C(O)CCc1nn2c3ccccc3n(CCN3CCCCC3)c2nc1=O	?
O=C(O)/C=C\C(=O)Nc1ccccc1C(=O)NCc1ccccc1	-4%
O=C(O)C(=O)/C(=C\c1cccc2ccccc12)c1ccc2ccccc2n1	?

Next part.
SMILES	HPGD inh
CCOC(=O)c1cccnc1SC(CC)C(=O)N1CCOCC1 (configuration not stated)	-6%
CC(NC(=O)CN1CCC(C(N)=O)CC1)c1ccccc1 (configuration not stated)	-12%
FC(F)(F)c1cc(NC(=S)Nc2ccc3ccccc3c2)cc(C(F)(F)F)c1	-21%
Cc1cc(C)c(S(=O)(=O)Nc2ccccc2C(F)(F)F)c(C)c1	-6%
COC(=O)c1ccccc1NC(=O)CSc1nnnn1C1CCCCC1	-14%
CCn1cc(-c2cc(C(F)(F)F)n3nc(C(=O)O)cc3n2)c(C)n1	-15%
Cc1nn(-c2ccccn2)c2c1C(c1ccccc1Cl)C1=C(N2)c2ccccc2C1=O (configuration not stated)	-20%
CCOc1cc(-c2noc(CCC(=O)Nc3cccnc3)n2)ccc1OC	-15%
COc1ccc(/C=N/N(C(C)=O)c2nc(-c3ccc(C)cc3)cs2)cc1	-14%
CC(=O)Nc1nc2n(n1)C(c1ccccc1)C=C(c1ccccc1)N2 (configuration not stated)	?
CC(=O)N1CCn2c3c(c(=O)c4cc(C)ccc42)CCC31 (configuration not stated)	?
O=C(OCCN1CCCCC1)c1ccc(O)cc1	-15%
COc1ccc2c(Cl)c(C(=O)NN)sc2c1	-29%
COc1cc(-c2nnc(CSc3nnc(Nc4ccc(C(C)C)cc4)s3)o2)cc(OC)c1OC	-13%
CC(C)CCNC(=O)c1cccc(C(=O)NCCC(C)C)c1	-7%
COC(=O)c1ccc(OC(=O)C2CC(=O)N(c3ccc(C)cc3C)C2)cc1 (configuration not stated)	-25%
CCOC(=O)C1C(=O)NC(N2CCOCC2)=NC1C(C)C (configuration not stated)	-7%
O=C(N/N=C/c1ccco1)c1cc(-c2cccc3ccccc23)n[nH]1	25µM*
C=CCN1C(=O)/C(=C/c2ccc(OCC(=O)O)cc2)S/C1=N/c1nccs1	-19%
CCOc1ccccc1C(=O)Nc1nccs1	-8%
CCOc1cc(C(=O)O)cc(Cl)c1OC	3%
